Ab BasE inh – BasE siderophore enzyme inhibitors, primary screen, biochemical, Acinetobacter baumannii ATCC 17978, fluorescence polarization; purified BasE, fluorescence polarization binding displacement; inhibition, % (no concentration beside the values); hit rate 0.1% among 84,000;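 active means both replicates above 25% with normal brightness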;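 further: 0% = negative plate control signal and 100% = positive plate control signal; stock transfer was 100 nL into about 30 µL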
KSHV LANA nucl – inhibitors of KSHV LANA-nucleosome binding, primary screen, biochemical, fluorescence polarization, FITC-LANA1-23, chicken nucleosomes; z-score (no concentration beside the values); hit rate 0.3% among 51,000; FITC-LANA1-23 / chicken nucleosome fluorescence polarization; hits give low values;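 active means both repeat wells score below -2 in polarization z-score versus plate sample wells, excluding overly bright wells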;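 further: 100 nL library stock added to about 30 µL; numbers are from one replicate; some results filed as inactive read as strong as hits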
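System – purified chicken nucleosomes with FITC-labelled LANA N-terminal peptide (1-23) · Amount – 240 nM purified chicken nucleosomes (480 nM peptide binding sites), final · Also added – 50 nM FITC-LANA1-23 probe · Medium – TEN-BT buffer, pH 7.5 · Incubation – compound with peptide–nucleosome mix 10–45 min at room temperature · Detection – fluorescence polarization, ex 480 nm, em 535 nm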
* hit, by the source's call; x = not tested or not shown. An excerpt, so the mix of outcomes need not match the whole.

Value order: Ab BasE inh, KSHV LANA nucl
> CC1=C(C(=O)Nc2ccccc2C)C(c2ccccc2O)NC(=S)N1 (stereo not given)
    -0.3, -0.155
> Nc1ccc2c(c1)CCC2=O
    2.4, 0.825
> COc1ccc(CCNS(=O)(=O)c2cc(C(=O)O)ccc2Cl)cc1OC
    -0.7, x
> C[N+]1(C2CCCCC2)Cc2ccccc2C1
    -0.8, x
> CN(C)C(=O)Cn1c2[n+](c3ccccc31)CC(O)CS2 (stereo not given)
    -1.1, -1.17
> O=C(Cc1csc(N2CCOCC2)n1)N/N=C/c1ccccc1C(=O)O
    -0.4, x
> CN(Cc1ccccc1)S(=O)(=O)C1CCS(=O)(=O)C1 (stereo not given)
    -2.4, -1.22
> CCN1C(=O)/C(=C2/C=Cc3ccccc3N2C)OC1=S
    -3.0, -1.25
> CC(NC(=O)c1ccccc1)c1nc(-c2ccccc2)no1 (stereo not given)
    -0.4, 0.0285
> Cc1cc(F)ccc1S(=O)(=O)Nc1ccccc1C(=O)OCC(=O)N1CCCC1=O
    -4.5, x
> CC1CN(c2cc(-c3ccccc3)c3ccccc3n2)CC(C)O1 (stereo not given)
    1.9, x
> CCN(CC)c1nc(N2CCN(C)CC2)nc2ccccc12
    0.0, 0.048
> NC(N)=N/N=C/C=C/c1ccccc1
    -4.3, 0.113
> C=CCNC(=S)NNc1nccc(-c2cccnc2)n1
    3.0, 0.064
> CN(C(=O)COC(=O)c1cccs1)c1ccccc1
    1.5, x
> CC(C)CCn1c(Br)nc2c1c(=O)n(Cc1ccccc1)c(=O)n2C
    0.9, -0.28
> O=C(CSc1ncc(C(F)(F)F)cc1Cl)NCCCN1CCCC1=O
    -1.0, x
> O=C(Cc1coc2ccc3ccccc3c12)Oc1ccc(-c2nnco2)cc1
    2.1, x
> O=C(c1cnn(-c2ccccc2)n1)N1CCCN(S(=O)(=O)c2ccc(F)cc2)CC1
    2.1, x
> O=C(CSc1nccc(=O)[nH]1)Nc1ccc(Oc2ccccc2)cc1
    2.5, 0.099
> CCOc1ccc(CCNC(=O)Nc2cn(C)c(=O)c3ccccc23)cc1OCC
    -0.2, 0.0595
> O=c1nc2n(c3cc(Cl)c(S(=O)(=O)N4CCOCC4)cc13)CCC2
    3.1, x
> N#CCC(=O)Nc1ccccc1C(F)(F)F
    3.1, x
> CSc1ccccc1C(=O)NCC(c1ccco1)N(C)C (stereo not given)
    2.7, x
> Cc1[nH]c(SCC(=O)NCCN2CCOCC2)nc1Cc1ccccc1
    1.2, x
> N#Cc1ccccc1OCCCCSc1ncccn1
    2.1, -1.96
> Cc1cc(C(=O)CSc2nnc3sc4ccccc4n23)c(C)n1CCc1ccccc1
    0.8, x
> CC(=O)N1C(=O)N(C)C2C1N(C(C)=O)C(=O)N2C (stereo not given)
    -0.7, 0.301
> COc1ccc(-c2cc(C(=O)N3CCN(Cc4ccccc4)CC3)[nH]n2)cc1
    -0.8, -0.007
> O=C(CN1C=NS(=O)(=O)c2ccccc21)N1CCCCCC1
    -0.1, -0.0035

7 entries drawn at random from the list so far:
Value order: Ab BasE inh, KSHV LANA nucl
> O=C(CN1C=NS(=O)(=O)c2ccccc21)N1CCCCCC1
    -0.1, -0.0035
> N#Cc1ccccc1OCCCCSc1ncccn1
    2.1, -1.96
> CCOc1ccc(CCNC(=O)Nc2cn(C)c(=O)c3ccccc23)cc1OCC
    -0.2, 0.0595
> Cc1cc(C(=O)CSc2nnc3sc4ccccc4n23)c(C)n1CCc1ccccc1
    0.8, x
> Cc1[nH]c(SCC(=O)NCCN2CCOCC2)nc1Cc1ccccc1
    1.2, x
> CSc1ccccc1C(=O)NCC(c1ccco1)N(C)C (stereo not given)
    2.7, x
> CC(=O)N1C(=O)N(C)C2C1N(C(C)=O)C(=O)N2C (stereo not given)
    -0.7, 0.301

Additional records follow.
Value order: Ab BasE inh, KSHV LANA nucl
> NNC(=O)c1csc(CS(=O)(=O)c2ccc(Cl)cc2)n1
    -0.8, x
> Cc1cc(C)nc(SCCS(=O)(=O)Cc2ccccc2)n1
    0.3, 0.479
> C=C(C)CN(CC)Cc1ccc(C(=O)OC)cc1
    0.4, -0.705
> CC1CC(C)(C)NC(=S)N1CCCC(=O)Nc1ccc2c(c1)OCCO2 (stereo not given)
    -2.7, -0.0735
> Cc1ccc(C(=O)OCCCCN2C(=O)c3ccccc3C2=O)cc1NC(=O)c1ccco1
    -0.1, x
> COc1ccc(CNc2ccc(NC(=O)c3ccco3)c(C)c2)cc1
    4.2, -0.07
> COC(=O)c1cc(S(=O)(=O)C(C)C)c(S(C)(=O)=O)s1
    2.7, -0.96
> COC(=O)c1ccc(COC(=O)C2CCN(C(=O)c3ccc(Cl)cc3)CC2)o1
    -0.2, x
> O=C(NC1CC2CCC(C1)N2C(=O)NC1CCCCC1)NC12CC3CC(CC(C3)C1)C2 (stereo not given)
    -0.7, 1.01
> CCOC(=O)c1nc(-c2ccccc2)sc1-c1ccnn1C(=O)NC(C)C
    3.4, x
> S=c1[nH]c(=S)c2cnc(N3CCc4ccccc43)nc2[nH]1
    -3.7, x
> O=C(CSc1nc2ccccc2c(=O)n1-c1ccccc1)N1CCC1
    -2.5, x
> COc1ccccc1C(=O)NCc1ccc2[nH]c(C)cc2c1
    -0.4, -1.35
> COc1ccc(-n2c(=O)c(CCC(=O)NC3CC3)nc3ccccc32)cc1
    -2.4, x
> Cc1c2oc3c(C)ccc(C(=O)OC(C)C4NC(=O)C(C(C)C)N(C)C(=O)CN(C)C(=O)C5CCCN5C(=O)C(C(C)C)NC4=O)c3nc-2c(C(=O)OC(C)C2NC(=O)C(C(C)C)N(C)C(=O)CN(C)C(=O)C3CCCN3C(=O)C(C(C)C)NC2=O)c(N)c1=O (stereo not given)
    x, -0.138
> C=CCN(c1ccccc1C1=N/C(=C\c2ccc(C)cc2)C(=O)O1)S(=O)(=O)c1ccc(C)cc1
    1.2, x
> CC(C)(CO)NC(=O)c1cc(-c2ccccc2F)no1
    0.6, -0.276
> N#Cc1ccccc1COC(=O)c1ccc2c(c1)OCO2
    -0.7, x
> COC(=O)c1cc(-c2ccc(OC)c(OC)c2)nc2ccccc12
    -1.9, 0.068
> CN(C)S(=O)(=O)c1ccc2oc(SCC(=O)Nc3ccccc3F)nc2c1
    -0.9, x
> CCCCCN=C(N)NN=Cc1c[nH]c2ccc(OC)cc12
    x, -0.181
> Nc1nc(N)nc(SCC(=O)N2N=C3/C(=C/c4ccccc4)CCCC3C2c2ccccc2)n1 (stereo not given)
    -3.7, x
> CC1(C)C/C(=N\NC(=O)CC#N)CCO1
    2.2, -0.209
> Fc1ccc(-c2nc3cc(N=C/C=C/c4ccc5c(c4)OCO5)ccc3o2)cc1
    2.7, x
> NC(=O)C1(N2CCCCC2)CCN(C(=S)NCc2ccco2)CC1
    0.6, 0.285
> COc1cccc(C(=O)Nc2ccccc2N2CCCCC2)c1
    0.2, x
> Cc1ccc(CS(=O)(=O)CC(O)COc2ccc(F)cc2)cc1 (stereo not given)
    2.5, -0.353
> CCOC(=O)C1CCCN(C(=O)C2c3cc(OC)c(OC)cc3C(=O)N(C)C2c2ccc(OC)cc2)C1 (stereo not given)
    -1.2, 0.022
> COc1ccc(S(=O)(=O)NCCc2cn3cccc(C)c3n2)cc1OC
    -0.2, 0.881
> CCSc1ccc(NC(=O)Cc2ccccc2)cc1
    2.2, -0.121
> O=c1oc2ccccc2c2c1Sc1ccccc1N2
    2.9, 1.03
> COc1ccc(CN(C)Cc2ccccc2)cc1
    2.9, 0.194
> CCSc1cc(C(F)(F)F)c(C(=O)N(C)Cc2c(OC)cccc2OC)cn1
    x, 2.06
> CC(C)c1ccc(N2CC(O)=C(c3nc4ccccc4n3C)C2=N)cc1
    3.0, 0.064
> CSc1nc(-c2ccco2)nn1C(=O)c1ccc(C)cc1
    1.2, 0.115
> O=C1CCCC2=C1C(c1ccco1)c1c([nH]n(-c3ccccc3)c1=O)N2 (stereo not given)
    1.1, 1.28
> Cc1onc(NC(=O)CSCC(=O)O)c1Br
    0.0, x
> O=C(O)CSC1=NCCN1
    1.0, -0.787
> COc1ccc(Br)c(C(=O)/C(C#N)=N/O)c1
    1.4, 0.243
> CC(C)(C)NC(=O)CSc1nnc(Cc2ccc3c(c2)OCO3)n1C1CCCCC1
    0.5, -0.848
> CN(C)/C=N/c1nnc(SCC(=O)c2ccc(Cl)cc2)s1
    -1.4, 0.126
> CCCc1nc(-c2ccccn2)[nH]c(=O)c1Cc1c(F)cccc1Cl
    2.3, 0.146
> Cc1ccccc1Nc1nc(N)nc(CSc2nc(C)c(C)n2CC(C)C)n1
    2.3, x
> Cn1c2ccccc2c2nnc(NN)nc21
    -1.4, 0.604
> CSc1ncccc1C(=O)OCC(=O)Nc1ccc(NC(C)=O)cc1
    0.4, x
> Cc1ccc(C=C2C(=O)NC(=O)NC2=O)cc1
    2.8, x
> CCOc1ccc(N=CC2=C(O)CC(c3ccco3)CC2=O)cc1 (stereo not given)
    -3.7, 1.52
> CC1(C)Cc2ccccc2C(c2cc3ccccc3oc2=O)=N1
    2.9, x
> CCCCN(C)Cc1cccc(OC)c1OC
    0.6, -0.206
> CC(C)NC(=O)CCc1nnc2n(Cc3ccc(Cl)cc3)c(=O)c3ccccc3n12
    -1.7, 1.6

Going on with the list:
Value order: Ab BasE inh, KSHV LANA nucl
> CSc1scc(N)c1S(=O)(=O)C(C)C
    1.6, x
> CSc1cccc(NC(=O)c2nnn(CC(=O)Nc3cc(C)cc(C)c3)c2N)c1
    2.1, -0.27
> CCCCOc1ccccc1C(=O)NCC(=O)NN
    1.1, 0.038
> CC1CN(C)C(C)/C(=C\c2ccco2)C1=O (stereo not given)
    4.5, -0.56
> COc1ccc(NC(=O)Cn2ncc3c([nH]c4ccccc43)c2=O)cc1
    -0.2, 0.706
> CC1=CC(=C2C(=O)c3ccccc3C2=O)C=C(C)N1CCN1CCOCC1
    0.2, 0.422
> O=C(O)C1CCN(C(=O)C2CC2)CC1
    1.6, x
> O=C1Nc2ccccc2S/C1=C\C(=O)N1CCN(Cc2ccccc2)CC1
    -1.1, 0.018
> CN(CC(=O)Nc1ccc(-c2nnc3n2CCCCC3)cc1)S(=O)(=O)c1ccc(Cl)s1
    1.0, x
> COc1ccc(S(=O)(=O)N(CCc2ccccc2)CC(=O)N2CCN(C)CC2)cc1Cl
    -0.2, 0.95
> O=C1NC(=Nc2ccccc2O)CS1
    -0.6, -0.249
> CCN(CC(=O)NCc1ccc(F)cc1)C(=O)Cc1coc2cc3c(cc12)CCC3
    -0.9, x
> COC(=O)C1=C(CN2CC(C)CC(C)C2)NC(=O)NC1c1ccc(OC)cc1 (stereo not given)
    3.4, -0.037
> CCN(CC)S(=O)(=O)c1ccc(NC(=O)Nc2cn(CC(C)C)c(=O)c3ccccc23)cc1
    -1.3, x
> CC(=O)OC1CC(C(=O)O)N(S(=O)(=O)c2ccc(C)cc2)C1 (stereo not given)
    2.3, x
> CCN(CC)c1cc(C)c2cc(NC(=O)c3ccc(Br)o3)ccc2n1
    -3.3, -0.0235
> Cc1ccc2nc(-c3ccncc3)cc(-c3ccccc3)c2c1
    -0.7, x
> COC(=O)C1=C(C)Nc2[nH]c(=S)[nH]c(=O)c2C1c1ccccc1 (stereo not given)
    8.5, x
> CCCCn1c(SCC(=O)N(C(C)C)C(C)C)nc2c1c(=O)n(C)c(=O)n2C
    0.1, -0.417
> O=c1[nH][nH]c(=S)n1C1CCCCC1
    2.6, -1.39
> COC(=O)c1cc(COC(=O)C2(c3cccc(F)c3)CCCC2)oc1C
    -1.2, x
> O=C(NCc1ccc(Cl)c(Cl)c1)c1cccnc1OCC(F)(F)F
    0.8, x
> COC(=O)CNC(=O)C12CC3CC(C)(CC(C)(C3)C1)C2
    -0.1, 0.692
> C=CCN(Cc1nc(-c2ccccc2)no1)C(=O)Nc1ccccc1
    1.8, 0.685
> O=C(O)CCCN1CCCC1=O
    -0.9, 0.018
> Cc1c(C(=O)/C=C/N(C)C)nnn1-c1ccc(Cl)cc1Cl
    x, 0.403
> COc1cc(C2CC(=O)C3=C(C)Nc4ccccc4N=C3C2)cc(OC)c1OC (stereo not given)
    -1.2, -1.46
> O=c1c(F)cn(C2CCCO2)c(=O)n1Cc1ccccc1F (stereo not given)
    1.9, 1.02
> CCC(COc1nnnc2ccccc12)NS(=O)(=O)c1ccc(-n2cnnn2)cc1 (stereo not given)
    0.6, -0.653
> COc1ccccc1C(C#N)N1N=C(C)CC1c1ccccc1 (stereo not given)
    0.2, -0.02
> Nc1nnc(C(=O)c2ccccc2N)s1
    0.8, x
> N/C(=N\OC(=O)c1ccc2c(c1)OCO2)c1ccc(Cl)cc1
    -6.3, 0.901
> Cc1cc(Cl)ccc1OCCCC(=O)NC1(C)CCS(=O)(=O)C1 (stereo not given)
    -0.5, x
> CC1CCCCN1C(=O)CSC1=NS(=O)(=O)c2ccccc2N1 (stereo not given)
    0.3, 0.677
> CCN1CC2CCCC3(C1)C(=O)NC1(CCCCC1)N=C23 (stereo not given)
    2.8, 0.312
> Cc1ccc(-c2csc(CS(=O)(=O)C(C)(C)C)n2)cc1
    -0.8, x
> Nc1nc2c(c3c1c(=O)oc1ccccc13)CCCC2
    1.7, 0.582
> Cc1ccccc1-n1c(SCc2c(C)noc2C)nnc1-c1ccncc1
    -0.4, x
> O=C(Cn1cnc2ccccc2c1=O)NCc1ccccc1
    -0.1, -0.981
> C=CCC(c1ccccc1)N(C(C)=O)c1ccco1 (stereo not given)
    4.5, 0.387
